# High-throughput results as filed in PubChem BioAssay.
# MLL AF4-AF9 inh – inhibitors of AF4 peptide binding to AF9, primary screen, biochemical, AlphaScreen, biotin-AF4 peptide, FLAG-AF9, single point | 350,000 tested, 0.47% active | Protein AF-9 (Homo sapiens), P42568 | inhibition, % at 10 µM;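 active = every replicate reaching a set inhibition limit, whatever the replicate mean, cut at about 25% in these data; inconclusive = mean inhibition reaches that limit but some replicates miss it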;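 also: 0% = plate neutral control median and 100% = total signal loss; the record names both 10 and 1 µM as test concentration; the first replicate is given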
# Target sequence (P42568 whole entry, looked up): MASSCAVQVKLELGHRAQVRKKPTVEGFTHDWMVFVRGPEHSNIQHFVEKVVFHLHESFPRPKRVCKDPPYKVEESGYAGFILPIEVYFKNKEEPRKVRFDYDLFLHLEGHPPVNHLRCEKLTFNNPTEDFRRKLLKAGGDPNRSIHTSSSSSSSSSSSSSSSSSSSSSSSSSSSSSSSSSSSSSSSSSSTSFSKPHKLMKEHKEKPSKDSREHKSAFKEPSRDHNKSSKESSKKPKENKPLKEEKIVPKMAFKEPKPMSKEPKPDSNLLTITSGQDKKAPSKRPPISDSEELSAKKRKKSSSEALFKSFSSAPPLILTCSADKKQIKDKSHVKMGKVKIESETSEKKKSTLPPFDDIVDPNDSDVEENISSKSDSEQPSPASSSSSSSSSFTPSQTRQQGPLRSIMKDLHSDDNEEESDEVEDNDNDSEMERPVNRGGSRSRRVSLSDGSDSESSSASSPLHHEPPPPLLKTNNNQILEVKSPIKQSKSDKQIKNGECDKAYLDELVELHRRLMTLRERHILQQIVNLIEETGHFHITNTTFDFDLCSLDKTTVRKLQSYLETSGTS
# Vif A3G – inhibitors of Vif binding to APOBEC3G peptide, primary screen, biochemical, TR-FRET, GST-Vif 1-94, biotin-A3G peptide, dose response retest (AID 1117319). inhibition, %, or IC50 in µM where a hit was titrated. TR-FRET GST-Vif / biotin-A3G peptide binding; higher % means a stronger effect; test concentration not given here; strong numbers were not always called active. 260,000 tested, 0.57% active. Virion infectivity factor (Human immunodeficiency virus type 1 group M subtype B (isolate …;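 active = above the screen mean plus three standard deviations and confirmed in dose response; inconclusive = results disagree or hit not tested in dose response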;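 also: Vif residues 1-94 fused to GST binding biotinylated APOBEC3G peptide 110-148; 0% = full assay without inhibitor and 100% = GST in place of GST-Vif; retest series ran down from 100 µM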
# Ecoli rRNA inh – reduced GFP signal of wild-type E. coli, primary screen, bacterial rRNA inhibitor project, GFP/RFP fluorescence, OD600, single point; E. coli WT GFP vs humanized-ribosome RFP mutants, 24 h; stronger effect = lower value; DMSO median 0, no signal -100; GFP signal change (wild-type ribosome), % (concentration not given with the values); 350,000 tested, 1.6% active;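 active = significant combined selectivity score with lowered wild-type GFP, culture density cut under 30%, mutant RFP and density less affected; inactive = any of these conditions unmet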; also: one replicate is shown; some compounds called inactive have numbers as strong as hits
# Beta apoptosis – inhibitors of cytokine-induced beta cell apoptosis, primary screen, luminescence; INS-1E cytokine-induced death, ATP luminescence, 48 h; percent of positive-control rescue, neutral wells zero; protection from apoptosis, % (no concentration beside the values); 300,000 tested, 0.8% active;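 active = all replicates at 75% or more, or half of them and the mean; inconclusive = half reach 75% but not the mean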;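 also: 0% = cytokine-treated negative control wells and 100% = positive control rescue; higher means more ATP so stronger rescue from cytokine killing; wells of about 40 µL received 100 nL stock; the first replicate is given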
# Calb FLC – C. albicans growth inhibition with fluconazole, primary screen, CaCi-2 strain, Alamar Blue fluorescence | C. albicans CaCi-2 (fluconazole-resistant clinical isolate) + fluconazole, 48 h | growth inhibition, % (concentration not given with the values) | 300,000 tested, 0.57% active | AID 1979, 2009;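 active = most replicates above 75%; inconclusive = exactly half above 75%; inactive = most below 75%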;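 also: all wells also contain fluconazole at 8 µg/ml as a sub-toxic cotreatment; 0% = median of DMSO wells and 100% = median of geldanamycin control wells; wells of about 8 µL received 7.5 nL stock; the first replicate is given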
# T cruzi repl – inhibitors of intracellular T. cruzi growth, primary screen, luminescence, NIH3T3 host cells | T. cruzi beta-gal in NIH3T3, 90 h | inhibition, % (no concentration beside the values) | 300,000 tested, 1.4% active | AID 1885, 2009;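 active = mean inhibition across valid replicates above about 55%, limit read from the data; inconclusive = mean below that limit but half or more replicates reach it; inactive = mean below it, under half of replicates reach it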;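 also: signal also drops with host cell toxicity which is not excluded here; 0% = plate median of DMSO wells and 100% = zero luminescence signal; higher percent means less beta-gal luminescence so fewer parasites; stock transfer was 50 nL into about 50 µL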
# RanGTP-Impb inh – inhibitors of RanGTP-importin-beta interaction, primary screen, biochemical, FRET, CFP-Ran, YFP-importin-beta, homogeneous; inhibition, % (concentration not given with the values); Ran GTPase (GTP-bound) - importin-beta complex; 300,000 tested, 1.1% active; cell-free CFP-Ran/YFP-importin-beta FRET ratio;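 active = most replicates above 15%; inconclusive = exactly half above 15%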;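 also: 0% = DMSO wells and 100% = Ran loaded with GDP instead of GTP; wells of about 40 µL received 100 nL stock; the first replicate is given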
# Bfl-1 A1 inh – caspase 3/7 activation in MEF A1-2A-BIM cells, primary screen, A1 inhibitor project, cell-based, luminescence, HTS. Caspase-Glo 3/7 luminescence, 3 h; percent of clofoctol response, vehicle zero. caspase activation, % (test concentration not listed). 330,000 tested, 0.066% active. AID 2462, 2010;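 active = over half of replicate activation scores above 10%, or exactly half above 10 with the replicate mean above 10; inconclusive = replicate mean below 10 yet half the replicates above 10; inactive = over half of replicates below 10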;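 also: wells of about 30 µL received 50 nL stock; many hits fall short of the cut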
# Ecoli rRNA inh OD600 – recorded beside Ecoli rRNA inh, whose call it bears; OD600 change, %; measured here: OD600 growth;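 optical density of the mix in the first replicate; 0 = DMSO median and -100 = no signal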
# Ecoli rRNA inh RFP – second read-out of Ecoli rRNA inh, no call of its own (marks repeat the call); RFP signal change, %; measured here: RFP humanized mutant strains;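 first replicate; 0 = DMSO median and -100 = no signal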
# Numbers without * were called inactive; ? = inconclusive; · = no result given. Only part of the results is shown, so the mix of outcomes need not match the whole.
SMILES,MLL AF4-AF9 inh,Vif A3G,Ecoli rRNA inh,Ecoli rRNA inh OD600,Ecoli rRNA inh RFP,Beta apoptosis,Calb FLC,T cruzi repl,RanGTP-Impb inh,Bfl-1 A1 inh
CCCS(=O)(=O)c1cnc(C2COc3ccccc3O2)nc1N (centres undefined),-3.1,·,11,17,2.6,12,13,-2,1.1,-7.3
O=c1[nH]c2cc3c(cc2cc1CN(Cc1cccnc1)Cc1nnnn1Cc1ccco1)OCCO3,-16,?,5,-18,3.5,-10,?,-1,-4.3,-1.8
CC(=O)c1sc(NCc2ccc(C)cc2)nc1C,2.0,-4%,2,3,1.2,-7,-6,-3,1.5,0.2
COc1ccc(CN2CCC(c3nc4ccc(Cl)cc4[nH]3)CC2)cc1,1.7,·,12,11,5.3,-4,-29,30,0.6,0.8
COc1ccc(N2CCN(C(=O)Cn3nnc(-c4ccc(OC)c(OC)c4)n3)CC2)cc1,3.1,-3%,12,4,2.6,4,41,6,-1.5,0.2
CSc1nc2c(c(=O)[nH]1)C(c1ccc(Br)cc1)CC(=O)N2 (centres undefined),-1.7,-2%,10,14,4.3,2,14,3,4.0,-0.4
Cc1cccc(C(=O)N2CCCC(N3CCN(c4ccccc4F)CC3)C2)n1 (centres undefined),-1.2,·,4,15,-1.2,2,-11,-1,-4.2,0.0
COc1cc(SC)ccc1C(=O)N(CC(=O)Nc1ccccc1Br)Cc1ccco1,0.9,3%,-20,-31,1.5,1,7,5,2.5,-0.5
Cc1cc(C)nc(NC(=O)c2cccc([N+](=O)[O-])c2)c1,5.8,-3%,16,11,-2.9,-1,-11,-1,-1.8,-0.3
COC(=O)c1c(-c2ccccc2)noc1C,-2.1,-15%,11,1,0.5,-4,17,-15,-0.5,0.0
CCOc1ccc(N2C(=O)C(=O)/C(=C(/O)c3ccccc3)C2c2ccccc2[N+](=O)[O-])cc1 (centres undefined),0.2,·,-17*,-3.2*,4.3*,6,-13,2,-0.4,-2.2
CNC(=O)/C(C#N)=C/c1cccc(Oc2ccccc2)c1,-1.1,-3%,-22,-2,14,-13,-2,-9,1.9,1.9
COc1cccc(OC)c1Nc1nc(C)nc2c1nnn2Cc1ccccc1Cl,-6.1,·,7,9,0.7,4,1,-3,6.7,0.8
O=C(O)CCCCCNCc1c(Cl)cccc1Cl,0.3,-2%,11,0,-0.6,-1,-5,-10,3.6,-0.6
Cc1cccc(N2CCN(C(=O)CCn3c(=O)[nH]c4ccsc4c3=O)CC2C)c1 (centres undefined),-1.2,·,4,-24,0.2,4,-2,10,-1.7,-0.8
O=C(c1ccco1)N1CCN(C(=O)c2ccccc2OCc2ccccc2)CC1,3.7,-3%,4,1,5.0,3,·,·,·,0.3
CCc1cc(=O)oc2c(C)c(OC(C)C(=O)N3CCC[C@@H]3C(=O)O)ccc12 (some centres undefined),1.5,·,·,·,·,-2,-1,-6,?,-0.2
COc1ccc(Cc2nnc(N/N=C/c3ccc(C)o3)[nH]c2=O)cc1,-2.6,10%,12,3,2.7,-3,-9,-2,-1.1,-0.1
N#Cc1ccc(Nc2ccccc2)c(N)c1,·,7%,·,·,·,·,-13,7,0.4,0.9
O=C(CNC(=O)c1ccc(Br)o1)NCc1ccc(F)cc1,-3.2,-2%,9,14,2.3,-5,-13,1,-1.0,0.8
S=C(NCc1ccco1)N1CCN(C/C=C/c2ccccc2)CC1,7.5,-6%,-12,-16,-0.6,-3,13,-1,-1.1,0.3
O=C(COC(=O)c1ccccc1OCC(=O)Nc1ccc(Br)cc1)Nc1ccccc1,-0.7,·,8,6,-6.1,0,-9,-13,-15,-0.4
O=C1c2ccccc2S(=O)(=O)c2cc(N3CCOCC3)ccc21,·,·,·,·,·,0,13,13,-76,0.1
COc1cc(NC(=O)CCc2ccccc2)c(C(=O)O)cc1OC,·,2%,·,·,·,-5,-3,-10,-3.2,-0.1
CCCNS(=O)(=O)c1ccc2c(c1)n(C)c(=O)n2C,-5.1,-2%,12,9,-1.4,·,25,-19,-4.1,0.4
CCC(CC)N1CCN(C(=O)c2cccc(Cl)c2)CC1,-13,-9%,0,10,3.0,-1,1,3,-1.8,1.7
C/C=C/COC(=O)c1[nH]c2c(c1C)C(=O)CC(c1ccc(N(C)C)cc1)C2 (centres undefined),4.3,13%,-8,-8,-0.2,13,-25,31,1.7,0.7
COCCNC(=O)C(=O)Nc1cc2c3c(c1)CC(=O)N3CCC2,-0.3,·,3,6,-4.0,-3,-3,-8,-1.9,0.6
CCCN(CCC)c1ccc(CC(=O)NC(C)Cc2ccccc2)cc1 (centres undefined),-0.4,11%,·,·,·,·,3,8,7.1,-1.6
CCOc1ccc(C(=O)Nc2ncn[nH]2)cc1,3.4,-2%,7,7,-0.5,-3,-12,-1,-0.8,0.0
c1ccc(-c2c[nH]c3[n+]2CCCCC3)cc1,·,3%,·,·,·,15,22,-20,1.3,-0.3
Cc1cc(OCC(=O)Nc2ccc3c(c2)OCCO3)cc(C)c1Cl,·,2%,·,·,·,5,7,-1,4.7,0.6
O=[N+]([O-])c1ccccc1SNc1ccc(Br)cn1,-0.2,-6%,10,13,1.5,-11,-16,4,-2.8,-1.5
CC1CC(c2ccccc2)=Nc2ccccc2N1 (centres undefined),11,·,10,4,-1.1,2,-11,0,0.1,-4.6
CCOc1cc(-c2nc(-c3ccccc3)c(-c3cc([N+](=O)[O-])ccc3C)[nH]2)ccc1O,·,7%,·,·,·,5,52,57*,-0.6,·
O=C(Nc1ccc2nc3n(c(=O)c2c1)CCCCC3)C(=O)N1CCN(c2ccccc2F)CC1,-5.0,·,0,1,-2.9,2,-4,-1,-0.5,0.9
CCOc1ccccc1N(C)C(=O)c1cn(C)c(=O)c2ccccc12,1.2,7%,8,4,-0.9,-1,-3,-3,2.5,0.8
Cc1ccc(S(=O)(=O)CCC(=O)OC(C)C(=O)Nc2ccc(N3CCOCC3)cc2)cc1 (centres undefined),-1.5,-1%,4,9,-3.2,-4,·,·,·,0.1
CSc1cccc(NS(=O)(=O)c2ccc(C(C)=O)cc2)c1,13,8%,-8,-16,-3.6,3,7,-16,1.0,0.2
Cc1ccc(S(=O)(=O)N2CCN(C(=O)c3c(-c4ccccc4)noc3C)CC2)cc1C,-6.9,9%,3,0,-0.2,-2,7,11,-1.5,1.6
COc1c2ccoc2c(OCC=C(C)C)c2oc(=O)ccc12,-3.6,-1%,-2,-2,-2.9,0,12,8,-0.9,-0.1
O=C(OCc1ccccc1)N1CCCC1/C=C/CN1CCOCC1 (centres undefined),0.0,·,20,6,2.7,-20,-2,-10,4.5,-0.3
CCN(CC)S(=O)(=O)c1ccc(N2CCOCC2)c(NC(=O)c2cc3ccccc3oc2=O)c1,2.8,·,-2,-11,11,6,-22,12,5.2,-0.2
NNC(=S)Nc1c(F)cc(F)cc1Br,4.0,7%,-22,-28,-5.2,6,-13,7,-0.4,-0.8
O=C(Nc1ccc(C(F)(F)F)cc1)C1CC(=O)N(c2ccc3c(c2)OCCO3)C1 (centres undefined),·,6%,·,·,·,1,-3,-3,-1.2,0.2
CC(NC(=O)c1ccc(CS(=O)(=O)c2ccc(Cl)cc2)o1)c1ccc2c(c1)OCCO2 (centres undefined),8.2,-1%,-17*,3.8*,2.8*,4,19,-2,-1.7,-0.2
NC(=O)c1ccc(NC(=O)COC(=O)/C=C/c2cn(-c3ccccc3)nc2-c2cccnc2)cc1,1.8,-31%,-7,-17,17,-5,4,-14,0.7,-0.1
Cc1[nH]c2ccccc2c1/C=N/NC(=O)CNC(=O)COc1ccccc1,0.2,-7%,-3,1,-3.2,·,36,-6,2.0,0.6
CCN1CCN(C(=O)Nc2ccc(Cc3ccc(NC(=O)N4CCN(CC)CC4)cc3)cc2)CC1,-27,1%,-3,-4,-1.7,-4,-5,25,2.4,0.2
COC(=O)Cc1csc(Nc2ccccc2)n1,0.0,·,4,7,2.3,-3,-1,5,2.0,-0.2
Cc1ccc(CC(=O)N2CCN(c3ccc([N+](=O)[O-])cc3)CC2)cc1,-5.4,-7%,-4,-3,-1.0,4,-12,4,-9.2,-0.2
CC(C)N(NC(=O)c1cccc2ccccc12)C(C)C,-1.9,5%,8,11,1.3,-1,-1,-4,-4.4,0.7
COc1ccccc1N1CCN(C2CCCN(C(=O)C3=NN(C)C(=O)CC3)C2)CC1 (centres undefined),1.9,·,7,4,-2.1,4,-6,4,-1.5,0.7
NS(=O)(=O)c1ccc(CCNC(=O)c2ccccc2OCc2ccc(F)cc2)cc1,1.3,·,-6,-15,-4.2,3,-3,14,4.3,0.2
CCCCOC(=O)c1ccc(NC(=O)c2c(OC)cccc2OC)cc1,-1.1,·,-27,-26,-5.0,0,23,-1,-1.9,2.0
CN(C)c1ccc(C=NCC2(O)CCOC(C)(C)C2)cc1 (centres undefined),·,2%,·,·,·,1,1,-6,2.5,-0.4
Cc1cccc(NC(=O)c2cc(-c3c(C)cc(C)cc3O)n[nH]2)c1,-0.8,2%,7,4,2.1,-4,-3,-7,-4.4,-2.4
CC(=O)Nc1ccc(NC(=O)CSc2nnnn2-c2ccccc2F)cc1,-1.5,·,5,2,-0.7,-5,15,-12,0.5,0.0
CCN(CC)S(=O)(=O)c1cc(OC)c(Cl)cc1OC,-1.8,-9%,-2,3,0.6,-3,-8,-1,-3.2,0.1
O=C(CCc1ccc(S(=O)(=O)NC2CCCCC2)cc1)Nc1ccccc1,·,3%,·,·,·,-8,0,9,-1.2,-0.3
# Later entries.
SMILES,MLL AF4-AF9 inh,Vif A3G,Ecoli rRNA inh,Ecoli rRNA inh OD600,Ecoli rRNA inh RFP,Beta apoptosis,Calb FLC,T cruzi repl,RanGTP-Impb inh,Bfl-1 A1 inh
O=C(c1cnc(-c2ccccc2)s1)c1ccc(Cl)cc1Cl,·,-11%,·,·,·,-20,0,5,1.4,0.1
CC(C)N1C(=O)C2C(C(=O)NC3CCCCC3)C3C=CC2(O3)C1C(=O)NC1CCCCC1 (centres undefined),·,4%,·,·,·,1,-5,4,?,0.4
Cc1ccc(C(=O)N/C(=C\c2cccs2)C(=O)NCCc2c[nH]c3ccccc23)cc1,·,·,·,·,·,2,-5,8,-4.8,1.2
COc1ccc(-c2nnc(SCC(C)C)o2)cc1,1.4,2%,-15,-11,3.1,1,-9,-4,-0.4,-3.7
